# Screens deposited in PubChem BioAssay by Emory University Molecular Libraries Screening Center.
# Measles inh: inhibitors of measles virus growth in infected cells | infected Vero cells, GFP fluorescence, 64 h; active compounds read low | 33,000 tested, 0.1% active | z-score (test concentration not listed);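 active means z-score under -3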;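 further: score is relative to mean and SD of the compound wells of a plate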
# The depositor's hits bear a star. An excerpt; the hit share may differ from the screen's.
Measles inh	smiles
0.1	COc1ccc(S(=O)(=O)NC(Cc2ccc(Cl)cc2)C(=O)O)cc1 (configuration not stated)
-0.28	CCOc1cc(C(=O)Oc2cc(=O)oc3ccccc23)cc(OCC)c1OCC
1.6	Cc1ccc(CN2CCC(=O)NC2=O)cc1
-0.64	O=C(c1cc2nc(-c3cccs3)cc(C(F)(F)Cl)n2n1)N1CCc2ccccc21
-0.85	Cc1cc([N+](=O)[O-])nn1CC(=O)N(C)C1CCCCC1
0.28	CC(=O)Oc1cc2c(cc1Cl)C1(CC(c3ccccc3)O2)CC(C)(C)NC(=S)N1 (configuration not stated)
2.08	O=C(NCC1CCCO1)c1cc(Sc2cccc(Cl)c2)nc2ccccc12 (configuration not stated)
1.38	Cn1c(=O)c2c(SCC(=O)N3CCCc4ccccc43)nc(-c3cccs3)nc2n(C)c1=O
-0.08	O=C(CN1CCN(S(=O)(=O)c2cccc([N+](=O)[O-])c2)CC1)Nc1ccc2c(c1)OCO2
-0.1	FC(F)Oc1ccccc1C1CC(c2ccc(Br)cc2)Nc2ncnn21 (configuration not stated)
1.58	Cc1ccnc(NS(=O)(=O)c2ccc(N3C(=O)C4CC=CCC4C3=O)cc2)n1 (configuration not stated)
-1	CCCCCOC(=O)C1=C(C)NC2=C(C(=O)CCC2)C1c1ccc(I)cc1 (configuration not stated)
0.1	CC1(C(=O)NC2CCCCC2)CCC(=O)N1CCc1ccccc1 (configuration not stated)
0.12	CC1=NCCN1S(=O)(=O)c1cc([N+](=O)[O-])ccc1Cl
-0.21	Cc1nc(SCC(=O)Nc2sc3c(c2C#N)CCC3)c2c3c(sc2n1)CCC3
-0.44	Cc1cccc(-c2nc3ccccc3c(=O)[nH]2)c1
-0.97	N#Cc1nc(-c2ccc(F)cc2)oc1N1CCCCC1
0.31	COC(=O)C1=C(C)NC2=C(C(=O)CC(c3ccccc3OC)C2)C1c1cccc([N+](=O)[O-])c1 (configuration not stated)
-0.68	Cc1ccccc1C(=O)Nc1ccc2oc(-c3ccccc3)nc2c1
-0.24	COc1ccc(-n2nc3c(c2NC(=O)c2ccccc2Cl)CS(=O)(=O)C3)cc1
-0.23	COc1ccc(C(=O)Nc2nc3c(cc4c5c(cccc53)CC4)s2)cc1OC
-1.69	COc1ccc(NC(=O)CS(=O)(=O)c2cccc3nsnc23)cc1
0.53	Cc1ccc(C(=O)NCCN=Cc2ccc([N+](=O)[O-])o2)cc1
-1.54	O=C(NC(=O)N(c1ccc(Cl)cc1)S(=O)(=O)c1ccccc1)Nc1ccccc1Cl
0.41	O=C(CSc1nc(O)cc(=O)[nH]1)Nc1ccc2c(c1)CCC2
1.02	CCOc1ccc(-c2nnc(SCC(=O)N3CCCCC3CC)o2)cc1 (configuration not stated)
-0.29	COc1ccc(-c2cc(C(=O)Nc3cccnc3)no2)cc1OC
-0.64	Cc1cc(C)cc(NS(=O)(=O)c2ccc3nc(-c4ccccc4)[nH]c3c2)c1
-0.51	O=C(O)C1C2CCC(C2)C1C(=O)Nc1ccc(Cl)cc1 (configuration not stated)
-0.54	O=C(NCc1ccco1)C1CCC(Cn2c(=S)[nH]c3ccccc3c2=O)CC1 (configuration not stated)

# The closing 2 compounds of the part above lead into the next.
Measles inh	smiles
-0.51	O=C(O)C1C2CCC(C2)C1C(=O)Nc1ccc(Cl)cc1 (configuration not stated)
-0.54	O=C(NCc1ccco1)C1CCC(Cn2c(=S)[nH]c3ccccc3c2=O)CC1 (configuration not stated)
8.23	COc1cc2c(=O)n(C3CCCC3)c(=O)n(CC(=O)c3cccc(Br)c3)c2cc1OC
-0.63	CCOC(=O)c1ccc(CNS(=O)(=O)c2c(C)cc(C)cc2C)o1
-0.72	CCc1ccc(-n2c(=O)c3c(C)c(C(=O)N(C)C)sc3n(CC(=O)Nc3ccc(OC)c(Cl)c3)c2=O)cc1
0.83	O=C(Nc1ccc2c(c1)C(=O)N(c1ccccc1)C2=O)c1cccc([N+](=O)[O-])c1
-0.84	COc1ccc(S(=O)(=O)NCC23CC4CC(CC(C4)C2)C3)cc1
0.12	CCCOC(=O)C1=C(C)NC2=C(C(=O)CC(c3ccc(OC)cc3)C2)C1c1ccncc1 (configuration not stated)
0.36	C(=Cc1ccccc1)Sc1cccc2cccnc12
-0.08	Cn1c(=O)n(CC(=O)O)c2ccccc21
-1.85	CCCCCOc1ccc(C(=O)Nc2cccc(-c3nc4ccccc4[nH]3)c2)cc1
1.12	CCOc1ccccc1NC(=O)c1sc2ncnc(N3CCCCC3C)c2c1C (configuration not stated)
0.05	COc1cc(OC)cc(C(=O)NCc2n[nH]c(=S)n2-c2ccccc2OC)c1
1.02	O=C(Nc1ccc(Br)cc1)c1nc2nc(-c3ccccc3)cc(C(F)(F)F)n2n1
0.17	COc1ccc2nc(NC(=O)CN3CCCCC3)sc2c1
0.54	CC(C)(C)c1ccc(C(=O)NCc2cccnc2)cc1
-0.13	COC(=O)C1=CN(C23CC4CC(CC(C4)C2)C3)C=C(C(=O)OC)C1c1cccs1
-0.22	COc1ccc(N2C(=S)NC3CC2(C)Oc2c(OC)cc(Br)cc23)cc1 (configuration not stated)
-0.39	C=CCc1c(C)nc2c(C(=O)O)cnn2c1C
0.71	Cc1sc2ncn(CC(=O)NCc3ccccn3)c(=O)c2c1S(=O)(=O)N1CCOCC1
-0.26	NC1=NC2(CCCCC2)N(c2ccccc2Cl)C(N)=N1
-0.02	COC(=O)c1ccc2c(=O)n(Cc3ccco3)c(SCc3cc(=O)n4ccccc4n3)nc2c1
-1.06	CCC1CCCCN1CCCNC(=O)c1cn(CC(C)C)c(=O)c2c1c1ccccc1n2C (configuration not stated)
1.28	COc1cc([N+](=O)[O-])cc2c1C(=O)Nc1ccccc1O2
1.49	O=C(NCc1cccs1)C1CC(=O)N(C2CCCC2)C1 (configuration not stated)
-0.77	CC(C)OC(=O)c1nonc1N(C(=O)c1ccccc1)C(=O)c1ccccc1
-0.19	COc1ccc(C(=O)COC(=O)c2ccccc2N2C(=O)C3C4C=CC(C4)C3C2=O)cc1 (configuration not stated)
-2.39	O=C(Nc1c2c(nn1-c1cccc(Cl)c1)CSC2)c1cc2ccccc2oc1=O
-1.47	S=C1CSc2ccccc2N1
-0.33	CC1=C(C(=O)OC(C)C)C(c2cccc(Oc3ccccc3)c2)C(C(=O)OC(C)C)=C(C)N1
1.55	CC1=C(C(=O)OCCc2ccccc2)C(c2cccc(O)c2)C2=C(CCCC2=O)N1 (configuration not stated)
1.41	O=C(c1ccc2c(c1)N(Cc1cccc(F)c1)C(=O)c1ccccc1S2)N1CCCCCC1

# For convenience, 17 of the compounds above.
Measles inh	smiles
1.12	CCOc1ccccc1NC(=O)c1sc2ncnc(N3CCCCC3C)c2c1C (configuration not stated)
0.05	COc1cc(OC)cc(C(=O)NCc2n[nH]c(=S)n2-c2ccccc2OC)c1
1.02	O=C(Nc1ccc(Br)cc1)c1nc2nc(-c3ccccc3)cc(C(F)(F)F)n2n1
0.17	COc1ccc2nc(NC(=O)CN3CCCCC3)sc2c1
0.54	CC(C)(C)c1ccc(C(=O)NCc2cccnc2)cc1
-0.13	COC(=O)C1=CN(C23CC4CC(CC(C4)C2)C3)C=C(C(=O)OC)C1c1cccs1
-0.22	COc1ccc(N2C(=S)NC3CC2(C)Oc2c(OC)cc(Br)cc23)cc1 (configuration not stated)
-0.39	C=CCc1c(C)nc2c(C(=O)O)cnn2c1C
0.71	Cc1sc2ncn(CC(=O)NCc3ccccn3)c(=O)c2c1S(=O)(=O)N1CCOCC1
-0.26	NC1=NC2(CCCCC2)N(c2ccccc2Cl)C(N)=N1
-0.02	COC(=O)c1ccc2c(=O)n(Cc3ccco3)c(SCc3cc(=O)n4ccccc4n3)nc2c1
-1.06	CCC1CCCCN1CCCNC(=O)c1cn(CC(C)C)c(=O)c2c1c1ccccc1n2C (configuration not stated)
1.28	COc1cc([N+](=O)[O-])cc2c1C(=O)Nc1ccccc1O2
1.49	O=C(NCc1cccs1)C1CC(=O)N(C2CCCC2)C1 (configuration not stated)
-0.77	CC(C)OC(=O)c1nonc1N(C(=O)c1ccccc1)C(=O)c1ccccc1
-0.19	COc1ccc(C(=O)COC(=O)c2ccccc2N2C(=O)C3C4C=CC(C4)C3C2=O)cc1 (configuration not stated)
-2.39	O=C(Nc1c2c(nn1-c1cccc(Cl)c1)CSC2)c1cc2ccccc2oc1=O

# (more compounds)
Measles inh	smiles
1.23	O=C1CCC([N+](=O)[O-])C(c2ccc(C(F)(F)F)cc2)N1 (configuration not stated)
-0.12	COc1ccc(Cl)cc1NC(=O)c1cc2n(n1)C(C(F)(F)F)CC(c1ccc(C)cc1)N2 (configuration not stated)
1.15	Cc1ccccc1OCC(=O)Nc1c(C)n(C)n(-c2ccccc2)c1=O
0.17	CCCCN(C)C(=O)Cn1cnc2sc(C)c(S(=O)(=O)N3CCC(C)CC3)c2c1=O
-0.06	CCc1ccc(NC(=O)c2ccc(F)c(S(=O)(=O)N(CC)Cc3ccccc3)c2)cc1
-0.46	COC(=O)C1=C(C)NC2=C(C(=O)c3ccccc32)C1c1ccc(C)cc1 (configuration not stated)
-0.41	CC1Cc2nc(SCC(=O)Nc3ccccc3C(F)(F)F)n(Cc3ccccc3)c(=O)c2S1 (configuration not stated)
-1.77	Cc1ccc(C2OC3(C(=O)c4ccccc4C3=O)C3C(=O)N(c4cccc(C(F)(F)F)c4)C(=O)C23)cc1 (configuration not stated)
-0.77	CC1CCC(N2C(=O)C3C(C(=O)Nc4ccc(C(C)C)cc4)C4C=CC3(O4)C2C(=O)NC2CCCCC2)CC1 (configuration not stated)
-1.46	COc1cccc(NS(=O)(=O)c2ccc3c(c2)c(=O)n(C)c(=O)n3C)c1
-0.58	CCOC(=O)CSc1nc(-c2ccccc2)cc(-c2ccc(Cl)cc2)c1C#N
0.49	O=C(NCc1n[nH]c(=S)n1-c1ccc(Br)cc1)c1ccc(S(=O)(=O)N2CCCC2)cc1
-0.27	CCC1SC2=NC(C)=C(C(=O)OCc3ccccc3)C(c3ccc(Cl)cc3)N2C1=O (configuration not stated)
0	NC(=O)c1cc2cc(Br)ccc2oc1=Nc1cc(C(F)(F)F)ccc1N1CCCCC1
2.06	CCC(=O)Oc1c(Sc2ccccc2)c(C)nn1-c1ccccc1
-0.23	O=C(Nc1cnc2ccccc2c1)N1CCOCC1
2.3	CC(C)OC(=O)C1C(=O)CC(C)(O)C(C(=O)OC(C)C)C1c1ccc([N+](=O)[O-])cc1 (configuration not stated)
-1.15	Cc1c(C(=O)Oc2cccc3cccnc23)cccc1[N+](=O)[O-]
0.81	Cc1ccc(-n2nc(C)c(S(=O)(=O)c3ccccc3)c2OC(=O)c2ccco2)c(C)c1
-0.12	Cn1c(-c2c(C(C)(C)C)oc3cc(OC(=O)C(C)(C)C)ccc3c2=O)nc2ccccc21
0.01	COc1ccc2nc3sc(C(=O)Nc4cccc(Cl)c4)cc3cc2c1
-1.4	O=C(NCCCN1CCOCC1)c1ccc(Sc2cccc(Cl)c2)c([N+](=O)[O-])c1
-1.09	Cc1ccc(CNC(=O)CN2C(=O)COc3ccccc32)cc1
-1.3	COc1ccc(-n2c(=O)c3c4c(sc3n(CC(=O)N3CCC(C)CC3)c2=O)CCCC4)c(OC)c1
-0.72	COc1ccc(OC)c2[nH]c(=O)c(CCNC(=O)COc3ccccc3)cc12
0.44	CCCCn1c(SCC(=O)N2CCC(C)CC2)nc2ccsc2c1=O
-0.05	CCOc1ccc(CN2CCN(c3ncnc4sc5c(c34)CC(C)CC5)CC2)cc1 (configuration not stated)
-0.21	COc1ccccc1C1C(Oc2ccccc2)C(=O)N1c1cccc([N+](=O)[O-])c1 (configuration not stated)
-0.46	O=C(CN(c1cc(C(F)(F)F)ccc1Cl)S(=O)(=O)c1ccccc1)Nc1ccc2c(c1)OCO2
0.6	CCOC(=O)c1ccc(-n2c(N)c(C(=O)NC(C)c3ccccc3)sc2=S)cc1 (configuration not stated)
-0.41	O=C(Cc1ccc([N+](=O)[O-])cc1)N1N=C(c2cccc([N+](=O)[O-])c2)CC1(O)C(F)(F)F (configuration not stated)
2.23	Cc1cc(Cl)ccc1OC(=O)c1cc2ccccc2oc1=O
1.71	Cc1ccc(NC(=O)Cn2cnc3sc(C(=O)NCc4ccco4)c(C)c3c2=O)cc1Cl
2.15	COCCCNC(=O)c1ccc2c(=O)n(CCOC)c(=S)[nH]c2c1
-0.3	O=C(c1ccc(S(=O)(=O)c2ccccc2Cl)c([N+](=O)[O-])c1)N1CCN(c2ccccc2Cl)CC1
0.41	O=c1cc(-c2ccccc2)[nH]n1-c1ccc([N+](=O)[O-])cc1
0.77	COc1cccc(CNC(=O)c2cn(CC(C)C)c(=O)c3c2c2ccccc2n3C)c1
0.41	Cc1ccc(S(=O)(=O)NCC2CCC(C(=O)NCCc3ccc(Cl)cc3)CC2)cc1 (configuration not stated)
2.81	CCCCSc1nsc(SCC(=O)c2ccccc2)c1C#N
-0.61	Cn1c(=O)c2c(SCC(=O)N3CCCCCC3)nc(-c3ccco3)nc2n(C)c1=O
0.39	COC(=O)c1c(NC(=O)COc2ccc(Cl)cc2)sc2c1C(C(=O)OC)CC2 (configuration not stated)
-1.41	COc1cccc(C(=O)Nc2ccc(Cl)c([N+](=O)[O-])c2)c1
-1.78	O=c1c2sccc2nc(SCc2cccc([N+](=O)[O-])c2)n1-c1ccc(Br)cc1
0.44	COc1ccc(C2C(C(=O)NCCN(C)C)c3cc(OC)c(OC)cc3C(=O)N2C)cc1 (configuration not stated)
-0.96	Brc1ccc2c3c(ccc2c1)OCN(c1ccccc1)C3
-0.21	Clc1cccc(-c2nc3ccccc3c3nc4ccccc4n23)c1
-0.77	COC(=O)C1=CN(C(C)C)C=C(C(=O)OC)C1c1ccc(OC)c(O)c1
-0.59	CCCCN(CC)C(=O)Cn1c(=O)n(-c2ccccc2)c(=O)c2sccc21
0.64	Cc1ccc(S(=O)(=O)N=C(Nc2nc(C)cc(C)n2)Nc2cccc(C)c2C)cc1
-0.77	Cc1ccc(-n2c(C)cc(C(=S)N3CCOCC3)c2C)cc1Cl
0.4	O=C(CSc1nc2sc3c(c2c(=O)[nH]1)CCCC3)NCc1ccccn1
0.82	CCN(CC)c1ccc(C=Nc2ccc(OC)cc2OC)c(O)c1
0.92	Cc1cc(-n2c(N)c(C(=O)Nc3ccccc3F)sc2=S)ccc1Cl
0.09	COc1ccc(OC)c(NC(=O)c2ccc(Br)o2)c1
-0.3	CCOC(=O)c1cc2c(=O)n3ccccc3nc2n(CCOC)c1=NC(=O)c1cccc(Br)c1
-0.46	CN(C)c1ccc(CNc2ccc3c(c2)ncn3C)cc1
-0.49	O=C(CCn1c(=S)[nH]c2cc3c(cc2c1=O)OCO3)NCc1ccccn1
-0.31	O=C(c1cc(-c2cccs2)nc2ccccc12)N1CCCC1
